YopH inh: YopH (Yersinia) phosphatase inhibition; fluorescence Ex485/Em525; inhibition, %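 (about 10 µM by stock and volumes)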; hit rate 0.16% among 140,000; AID 898;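 active means inhibition of 50% or more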;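 further: controls were vehicle for no effect and minimum signal wells for full effect; inactives centre near -20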
Mtb bLac sens: beta-lactam sensitization of Mtb H37Rv; M. tuberculosis H37Rv growth with meropenem, percent inhibition; hits of this screen are not shown here; inhibition, % at 25 µM; hit rate 0.27% among 330,000; AID 434955;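 active means about 74% or more and at least 40 points above the plate without the antibiotic, then above 30% in a dose series; inconclusive means first-round hits that could not be retested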;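 further: growth measured after seven days incubation then overnight dye step; 0% = bacteria only wells and 100% = bacteria with antibiotic; twin plates without the antibiotic show which effects depend on it; some results filed as inactive read as strong as hits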
Mtb growth: M. tuberculosis H37Rv growth inhibitors, H37Rv strain (AID 1626) | hit rate 0.95% among 220,000 | inhibition, % at 10 µM, or IC50 in µM where a hit was titrated | M. tuberculosis H37Rv growth inhibition; higher % means a stronger effect;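 active means confirmed in a dose series; inconclusive means inhibition above 80% but not taken into the dose series; inactive means below 80% or under 30% at every dose of the series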;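 further: bacteria incubated seven days before Alamar blue readout; 0% = bacteria only wells and 100% = bacteria with antibiotic wells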
Arbovirus inh: blocks arbovirus infection; inhibition, % at 10 µM; arbovirus infection cell-based antiviral screen; hit rate 0.37% among 200,000;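 active means inhibition from about 30%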;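 further: bluetongue infection of BSR cells; cell survival read as ATP light after 72 h; 0% = infected wells without compound and 100% = uninfected wells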
RecA intein inh: Mtb RecA intein splicing inhibition; inhibition, %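 (about 9 µM by stock and volumes)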; hit rate 0.75% among 290,000; AID 2221; cell-free RecA intein splicing, fluorescence; P9WHJ3; in the data active means inhibition above about 30%; inconclusive means no clear call, values can overlap the other calls;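 further: 0% = vehicle wells and 100% = reference inhibitor control wells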
Target sequence (P9WHJ3 whole entry, looked up): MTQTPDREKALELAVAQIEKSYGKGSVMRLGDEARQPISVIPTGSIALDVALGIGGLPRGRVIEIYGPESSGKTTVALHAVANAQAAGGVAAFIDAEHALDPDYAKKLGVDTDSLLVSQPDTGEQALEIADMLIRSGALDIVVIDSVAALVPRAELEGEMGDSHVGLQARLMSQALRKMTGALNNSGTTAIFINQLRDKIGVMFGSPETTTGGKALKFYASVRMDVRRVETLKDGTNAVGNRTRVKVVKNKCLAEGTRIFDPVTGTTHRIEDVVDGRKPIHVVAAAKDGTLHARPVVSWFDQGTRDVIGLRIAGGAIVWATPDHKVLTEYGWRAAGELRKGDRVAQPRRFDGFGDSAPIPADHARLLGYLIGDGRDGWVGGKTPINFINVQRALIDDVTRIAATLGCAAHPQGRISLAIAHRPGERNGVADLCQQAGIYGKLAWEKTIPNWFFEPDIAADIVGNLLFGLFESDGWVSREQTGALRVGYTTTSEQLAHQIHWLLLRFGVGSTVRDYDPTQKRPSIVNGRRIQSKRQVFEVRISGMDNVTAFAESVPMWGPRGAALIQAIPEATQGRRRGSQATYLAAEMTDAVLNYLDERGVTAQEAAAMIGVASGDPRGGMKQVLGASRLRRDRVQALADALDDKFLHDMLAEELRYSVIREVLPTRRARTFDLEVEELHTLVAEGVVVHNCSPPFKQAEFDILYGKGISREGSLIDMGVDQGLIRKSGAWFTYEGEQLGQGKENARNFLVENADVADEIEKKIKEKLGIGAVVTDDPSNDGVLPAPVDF
Arbovirus inh repeat: further read-out of Arbovirus inh, marked with its call; inhibition, %; measured here: 10K subset replicate screen; many hits read low in the repeat;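 first of two repeat runs on a subset; 0% = infected and 100% = uninfected wells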
The depositor's hits bear a star; ? = inconclusive; . = no result given. A portion of the library. The share of hits here may be higher or lower than overall.

SMILES | YopH inh | Mtb bLac sens | Mtb growth | Arbovirus inh | RecA intein inh | others
O=C(Nc1ccccc1[N+](=O)[O-])c1cc2ccccc2nc1Cl | . | 1 | -2% | . | 2.1
CC(=O)Nc1cc(C(=O)N2CCCC2)ccc1S(=O)(=O)c1ccc(Cl)cc1 | -35 | -5 | -9% | 2 | -1.1
CCCCN1CN(S(=O)(=O)c2ccc(OC)cc2)c2nc3ccccc3nc21 | . | -3 | . | . | 0.2
Cc1cc(C(=O)O)cc(S(=O)(=O)N2CCOCC2)c1C | -60 | 8 | -13% | 7 | .
NNC(=O)CN(CCc1ccccc1)S(=O)(=O)c1ccc(Cl)cc1 | . | -7 | -6% | -13 | -1.2
COc1ccc(S(=O)(=O)NC(C)C(=O)N2CCCCCC2)cc1 (stereo not given) | . | -3 | . | . | -0.7
O=C(NCc1ccco1)/C(=C\c1ccc(F)cc1)NC(=O)c1ccco1 | . | 6 | . | . | -1.4
COc1ccc(C(=O)Nc2cccc3ccccc23)cc1 | . | 40 | . | . | 5.1
C=CCn1c(SCc2cc(=O)n3cc(C)ccc3n2)nnc1-c1cccc(C)c1 | -11 | 1 | 13% | 14 | -0.8
O=C(COc1ccccc1)Nc1ccc(N2CCN(C(=O)c3ccco3)CC2)cc1 | . | -13 | -9% | -11 | 0.1
CCc1c(C)sc(NC(=O)Cn2nc(C)c([N+](=O)[O-])c2C)c1C(N)=O | . | 2 | -3% | -11 | .
CN(CCO)c1cc(N2CCN(C(=O)c3ccco3)CC2)c2nonc2c1[N+](=O)[O-] | -30 | 4 | -7% | 3 | 1.9
COc1ccc(OCc2cc(C(=O)N(C)Cc3nccn3C)no2)c2ccccc12 | . | 3 | . | . | 14
CC(C)Cn1c(=O)c(C(=O)Nc2ccncc2)c(O)c2ccccc21 | . | 100 | . | . | -0.7
Cc1ccc2nc3nc(NCC4CCCO4)c(C(=O)NC4CCCCC4)cc3c(=O)n2c1 (stereo not given) | . | 4 | -1% | -1 | -255

Seven compounds drawn at random from the list so far, as already listed:
SMILES | YopH inh | Mtb bLac sens | Mtb growth | Arbovirus inh | RecA intein inh | others
Cc1ccc2nc3nc(NCC4CCCO4)c(C(=O)NC4CCCCC4)cc3c(=O)n2c1 (stereo not given) | . | 4 | -1% | -1 | -255
O=C(NCc1ccco1)/C(=C\c1ccc(F)cc1)NC(=O)c1ccco1 | . | 6 | . | . | -1.4
CN(CCO)c1cc(N2CCN(C(=O)c3ccco3)CC2)c2nonc2c1[N+](=O)[O-] | -30 | 4 | -7% | 3 | 1.9
COc1ccc(C(=O)Nc2cccc3ccccc23)cc1 | . | 40 | . | . | 5.1
Cc1cc(C(=O)O)cc(S(=O)(=O)N2CCOCC2)c1C | -60 | 8 | -13% | 7 | .
CC(C)Cn1c(=O)c(C(=O)Nc2ccncc2)c(O)c2ccccc21 | . | 100 | . | . | -0.7
CCc1c(C)sc(NC(=O)Cn2nc(C)c([N+](=O)[O-])c2C)c1C(N)=O | . | 2 | -3% | -11 | .

Other results follow:
SMILES | YopH inh | Mtb bLac sens | Mtb growth | Arbovirus inh | RecA intein inh | others
O=C(C1CCCN(S(=O)(=O)c2ccccc2)C1)N1CCCCC1 (stereo not given) | . | 6 | . | . | -0.5
CCOc1ccc(-c2nnn(CC(=O)NCc3ccco3)n2)cc1 | -27 | -6 | -5% | -12 | 1.3
Cc1ccc(NC(=O)Cn2nnc(C(=O)NCc3ccc(Cl)cc3)c2N)cc1F | . | 2 | . | . | 0.7
CCc1nnc(NC(=O)CSc2nnc(COc3cccc(C)c3)o2)s1 | -34 | 7 | -3% | 4 | -3.6
O=S(=O)(c1ccc(Cl)cc1)c1nc(-c2ccccc2F)oc1NCCCN1CCOCC1 | . | 2 | . | . | -0.6
O=C(O)Cn1nc(-c2ccc(Cl)cc2)ccc1=O | . | 0 | . | . | -0.8
CCSc1nc(N)c2c3c(sc2n1)CN(C)CC3 | -5 | ? | -6% | 6 | -5.4
FC(F)(F)c1ccc(C2[C@H]3CN(Cc4cccnc4)[C@H](c4ccccc4)C34CC2(c2cccnc2)C4)cc1 (stereo not given in full) | . | 98 | 72% | . | 40*
O=[N+]([O-])c1ncc(Br)cc1Nc1ccccc1 | . | -6 | . | . | 4.1
O=C(Nc1cccc(NC(=O)c2ccco2)c1)c1cccc(Br)c1 | . | 1 | . | . | 1.1
O=C(O)/C=C/C(=O)Nc1c(F)cccc1F | . | -4 | -10% | . | -0.6
N=c1n(CC(=O)O)c2ccccc2n1Cc1ccccc1Cl | -37 | -5 | 8% | 5 | 0.0
C=CCN(c1ccccc1)S(=O)(=O)c1ccc2c(c1)oc(=O)n2C | -55 | -8 | 4% | -4 | 2.9 | Arbovirus inh repeat=-3
COc1ccc2c(c1)CCCC2NS(=O)(=O)OCC(Cl)(Cl)Cl (stereo not given) | . | -1 | . | . | 11
CCOC(=O)C1(Cc2ccccc2)CCN(Cc2ccc(C3CCCCO3)s2)CC1 (stereo not given) | . | 0 | 5% | . | 3.7
CCCC(=O)NC(c1ccc(N(C)C)cc1)c1c(O)ccc2ccccc12 (stereo not given) | -36 | 2 | 73% | 5 | 3.2
CCOc1ccc2c(c1)c(C(C)=O)c(C)n2-c1ccccc1 | -11 | . | -6% | -11 | 2.4
CC(=O)OCc1nc2sc3c(c2c(=O)[nH]1)CCCC3 | -17 | 7 | -7% | 7 | -4.2
CC(=O)Nc1ccc(NC(=O)C(C)OC(=O)C2CC(=O)N(CCc3ccccc3)C2)cc1 (stereo not given) | . | -1 | . | . | -0.9
CN(C)CCNc1ccc(-c2nn(C)c(=O)c3ccccc23)cc1[N+](=O)[O-] | . | 4 | -4% | -12 | 2.3
CC(=O)N1N=C(c2ccc(Br)cc2)CC1c1cn(C)c2ccccc12 (stereo not given) | -5 | 46 | 13% | -41 | 25
CC(=O)Nc1ccc(NC(=O)CS(=O)(=O)c2cn(CC(=O)N3CCC(C)CC3)c3ccccc23)cc1 | . | 2 | . | . | 1.1
CCc1nnc(N2C(=N)SCC2=O)s1 | . | 26 | 10% | 6 | -10
CCCc1nc2ccccc2c(=O)n1NC(=O)c1c(O)c2cccc3c2n(c1=O)CCC3 | -13 | -2 | -5% | 9 | -4.5
O=C(NN(C(=O)C1CC1)c1nc2ccccc2s1)C1CC1 | -35 | 1 | 0% | 5 | -1.8
O=C(CN1C(=O)S/C(=C/c2cccnc2)C1=O)N1CCOCC1 | -30 | -2 | 3% | 6 | 1.2
COc1ccc(N2CCN(C(=O)C(=O)c3c(C)n(C)c4ccccc34)CC2)cc1 | . | 3 | 6% | 5 | 2.6
COc1ncccc1-c1nnn(-c2ccc(F)cc2)n1 | . | 5 | -8% | -4 | -1.0
C=CCn1c(C)cc(C)c(C#N)c1=O | -10 | 9 | -2% | 6 | -0.7
CCOc1cc(C(C(=O)NCC2CCCO2)N(C(=O)Cn2nnc3ccccc32)c2ccccc2C)ccc1O (stereo not given) | . | -1 | . | . | 0.4
N#Cc1c(-c2ccco2)ccn(Cc2ccc(F)cc2)c1=O | . | 3 | 5% | -9 | 0.4
COc1ccc(/C=C2\SC(=S)N(N3CCOCC3)C2=O)c(OC)c1 | . | 0 | 0% | . | 0.5
CN(C)C(=O)c1ccc(N/C=C(\C=O)c2nc3ccccc3o2)cc1 | . | 2 | -2% | -4 | 1.9
CCOC(=O)COc1cc(-n2c(=S)[nH]c3ccccc3c2=O)c(Cl)cc1Cl | . | 9 | 4% | 7 | 5.1
Cn1c(N2CCN(C(=O)Nc3ccc(F)cc3)CC2)nc2ccccc21 | -27 | 0 | -9% | -9 | 0.4
Cc1nc2cc(N3CCCCC3)c(NC(=O)c3ccncc3)cc2c(=O)n1Cc1ccccc1 | -24 | . | 2% | -12 | .
CC(C)(C)NC(=O)c1ccc2c(c1)C1C3CCC(C3)C1C(c1ccccc1)N2 (stereo not given) | -9 | 60 | 43% | -15 | 15
O=C(Nc1ccc(Cl)cc1C(=O)c1ccccc1Cl)c1ccco1 | -36 | -3 | -5% | 5 | 0.9
O=C(Cn1nnnc1CN1CCOCC1)N1CCC(c2cccc(Cl)c2)C1 (stereo not given) | . | -4 | . | . | -2.3
O=C(NNc1ccccc1C(F)(F)F)c1sccc1Br | . | 52 | -6% | . | 2.3
CCN(Cc1ccccc1)C(=O)CCNS(=O)(=O)c1ccc2c(c1)CC(C)N2C(C)=O (stereo not given) | . | 6 | . | . | -0.6
COc1ccc(C(c2sc3nc(C)nn3c2O)N2CCc3ccccc3C2)cc1 (stereo not given) | -36 | 4 | 2% | 0 | 1.8
O=C(CCn1nnc(-c2cccs2)n1)N1CCc2ccccc2C1 | -39 | 5 | 0% | 4 | 3.7
CCOC(=O)N1CCN(C(=O)COC(=O)C2CCN(S(=O)(=O)c3c(Cl)cccc3Cl)CC2)CC1 | . | -8 | . | . | -2.4
Cc1ccc(N(C)C(=O)c2cc(S(=O)(=O)N3CCCCC3)c[nH]2)cc1 | . | 0 | . | . | -0.5
CC(=O)Nc1ccc(S(=O)(=O)N2CCN(S(=O)(=O)c3ccc(F)c(F)c3F)CC2)cc1 | . | -1 | . | . | -2.3
Cc1ccc(S(=O)(=O)N2CCN(C(=O)Cc3ccc(S(=O)(=O)N4CCOCC4)s3)CC2)cc1 | . | -4 | . | . | 2.7
O=S(=O)(Cc1ccccc1Cl)NCCc1ccc(F)cc1 | . | -3 | . | . | 3.5
O=C(CN1C(=O)C2C3C=CC(C3)C2C1=O)OCC(=O)c1ccc(Br)cc1 (stereo not given) | . | ? | . | . | -1.3
Cc1cc(C)n(-c2ccc(NC(=O)C3CCCCN3C(=O)c3ccoc3)cc2)n1 (stereo not given) | . | -2 | . | . | 1.8
C[n+]1cccc(O)c1SCc1ccccc1 | . | 88 | . | . | -4.2
C=CCn1c(SCc2c(C)noc2C)nc2cc(C(=O)O)ccc2c1=O | -39 | 4 | -5% | -17 | -1.8
O=C(c1cnn2c(C(F)(F)F)cc(-c3cccs3)nc12)N1CCOCC1 | . | -2 | -8% | -1 | -52
CCOC(=O)c1c(C)[nH]c(C)c1S(=O)(=O)NCc1cc(C)ccc1C | . | -2 | . | . | -1.2
COc1ccc(NC(=S)NN2CCN(C)CC2)cc1 | -30 | -15 | 0% | 4 | 1.1
CCOc1ccc(NC(=O)C2CCCN(C)C2)cc1 (stereo not given) | . | -2 | 12% | . | 1.6
Cc1[nH]c2ccc(C(=O)OC(C)C(=O)N(C)c3ccccc3)cc2c1C (stereo not given) | . | 4 | . | . | -5.7
COc1ccc(/C=C/C(=O)N2CC(C)OC(C)C2)cc1OC (stereo not given) | . | -2 | . | . | -3.2
CN(C)CCOC(=O)CCCCCCCCC(=O)OCCN(C)C | . | -1 | -1% | . | 0.3
O=C(c1ccccc1)c1cnc[nH]1 | . | 0 | -4% | . | -4.9

Ordered by number of heavy atoms (highest first): some entries from above
SMILES | YopH inh | Mtb bLac sens | Mtb growth | Arbovirus inh | RecA intein inh | others
CC(=O)Nc1ccc(NC(=O)C(C)OC(=O)C2CC(=O)N(CCc3ccccc3)C2)cc1 (stereo not given) | . | -1 | . | . | -0.9
CN(C)CCNc1ccc(-c2nn(C)c(=O)c3ccccc23)cc1[N+](=O)[O-] | . | 4 | -4% | -12 | 2.3
O=C(c1cnn2c(C(F)(F)F)cc(-c3cccs3)nc12)N1CCOCC1 | . | -2 | -8% | -1 | -52
Cc1ccc(N(C)C(=O)c2cc(S(=O)(=O)N3CCCCC3)c[nH]2)cc1 | . | 0 | . | . | -0.5
CCOc1ccc(-c2nnn(CC(=O)NCc3ccco3)n2)cc1 | -27 | -6 | -5% | -12 | 1.3

Carrying on.
SMILES | YopH inh | Mtb bLac sens | Mtb growth | Arbovirus inh | RecA intein inh | others
CCc1cccc2sc(NC(=O)C3CC3)nc12 | . | -2 | . | . | -1.4
Cc1cc(-c2ccc(C)c(S(=O)(=O)Nc3cc(C)on3)c2)on1 | . | 9 | . | . | -0.1
CCNc1nc(NCC)n2c(SCC(=O)Nc3ccc(C(F)(F)F)cc3[N+](=O)[O-])nnc2n1 | -22 | 2 | 8% | 14 | 0.4
O=C(c1ccc(Cn2cc([N+](=O)[O-])cn2)o1)N1N=C(C(F)F)CC1(O)C(F)F (stereo not given) | -33 | ? | 4% | 1 | -0.4
O=S1(=O)CCOC[C@H](Cc2ccccc2)N1Cc1ccc(Cl)cc1 | . | -11 | -1% | . | 3.7
O=C(Cc1cccs1)Nc1ccccc1C(=O)O | -68 | 14 | 4% | 5 | 6.4
COc1ccc(N(Cc2cc3cccc(C)c3[nH]c2=O)S(=O)(=O)c2ccc(Cl)cc2)cc1 | . | 1 | . | . | 1.0
O=[N+]([O-])c1ccc(Oc2cc(NC3CCCCCCC3)c([N+](=O)[O-])cc2[N+](=O)[O-])cc1 | . | -13 | . | . | 2.5
Cc1ccc(NC(=O)c2cccc(Oc3ccc([N+](=O)[O-])cc3)c2)c(C(=O)O)c1 | . | 0 | . | . | 8.8
